Screening results: PubChem, National Center for Advancing Translational Sciences (NCATS)
Marburg entry inh: inhibitors of Marburg virus binding or cell entry; Marburg virus pseudotyped entry inhibition, cell reporter; control for the full effect not named in the record; about a third of the inactives were read at about 46 µM; Potency, µM (top dose mostly 37.8 µM), without a hit: top-dose activity change, negative = inhibition, hits mostly inhibitors; hit rate 1.8% among 300,000; active = well fitted inhibition curve with a large enough effect; inconclusive = small, poorly fitted or top-dose-only effect, or effect the other way; inactive = flat fitted curve, though single readings scatter; tested in HEK293 cells; about a fifth of its hits are not listed in these tables; further: on the % scale 0 is the no-effect control and ±100 the full control effect; luciferase read-out
Cruzain inh Det: inhibitors of Trypanosoma cruzi cruzain with detergent | P25779 | purified cruzain, Z-FR-AMC fluorescence, 0.01% Triton | Potency, µM, inactives show max response, negative = inhibition, usual class: inhibitors | hit rate 0.43% among 200,000; active means well fitted curve in the direction sought with a large enough effect; inconclusive means small, poorly fitted or top-dose-only effect, or another doubt; inactive means no such curve, though single readings can be large; an effect the other way counts as inactive or inconclusive;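 further: plate controls were neutral wells for no effect and buffer without enzyme for full effect; nearly all actives have a fitted effect of over 40% in size; top concentration of the series not given in the record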
Target sequence (P25779 123-467 limits assumed): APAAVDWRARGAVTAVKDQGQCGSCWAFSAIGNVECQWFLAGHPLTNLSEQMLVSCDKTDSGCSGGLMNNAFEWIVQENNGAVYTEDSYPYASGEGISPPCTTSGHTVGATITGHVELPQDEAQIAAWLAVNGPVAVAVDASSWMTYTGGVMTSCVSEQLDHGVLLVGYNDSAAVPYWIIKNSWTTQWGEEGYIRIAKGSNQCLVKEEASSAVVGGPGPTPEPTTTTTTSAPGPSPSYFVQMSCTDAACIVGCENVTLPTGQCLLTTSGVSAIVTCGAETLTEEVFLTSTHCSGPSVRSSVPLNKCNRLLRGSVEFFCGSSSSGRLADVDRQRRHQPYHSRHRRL
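Detergent-containing run (0.01% Triton X-100) in acetate buffer pH 5.5 with 5 mM DTT: enzyme at 1.5 nM final, 15 min compound preincubation at room temperature, then 2 uM Z-FR-AMC substrate. Activity taken as 60 s fluorescence increase at 360/450 nm.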
NS1 function inh: blocks influenza NS1 protein function; S. cerevisiae slowed by influenza A NS1, growth recovery by OD600; hit rate 0.4% among 270,000; Potency, µM (top dose mostly 46.1 µM), without a hit: at the top dose activity, positive = more growth; further: actives are rising curves; nearly all actives have a fitted effect of over 50% in size
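OD600 was taken as the measure of yeast growth restored by compound in an NS1-expressing S. cerevisiae strain. Cells had been washed out of glucose medium and diluted 1:100 into galactose -URA medium, pH 6.0.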
SARS PLP yeast: inhibitors of SARS-CoV papain-like protease in yeast; AID 485353; Potency, µM (highest dose often 32.9 µM), for the others: at the highest dose activity, positive = growth rescue; hit rate 0.19% among 330,000; S. cerevisiae expressing SARS-CoV PLpro, growth rescue; control for the full effect not named in the record; further: 0% is about no effect; nearly all actives have a fitted effect of over 55% in size; growth read by luminescence after 48 h
Lassa entry inh: blocks Lassa virus binding to or entry into cells. Lassa virus pseudotype entry inhibition, cell reporter; control for the full effect not named in the record. Potency, µM (top dose mostly 37.9 µM), for inactives: at the top dose activity change, negative = inhibition, most hits filed as inhibitors. hit rate 1.2% among 300,000; active means well fitted inhibition curve with a large enough effect; inconclusive means small, poorly fitted or top-dose-only effect, or effect the other way; inactive means flat fitted curve, though single readings scatter; tested in HEK293 cells; further: on the % scale 0 is the no-effect control and ±100 the full control effect; nearly all actives have a fitted effect of over 50% in size; luciferase read-out
RE007 growth inh: less growth of the S. pombe RE007 Vpr strain; AID 651644; S. pombe RE007 Vpr strain, BacTiter-Glo ATP luminescence, 24 h; control for the full effect not named in the record; Potency, µM (titrated, usually from 92.2 µM), for the others: top-dose activity change, negative = less growth; hit rate 0.21% among 360,000; active = well fitted falling curve with a large enough effect; inconclusive = small, poorly fitted or top-dose-only effect; inactive = no such curve, though single readings can be large or run the other way;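 further: on the % scale 0 is the no-effect control and ±100 the full control effect; nearly all actives have a fitted effect of over 50% in size; the assay follows cell death caused by Vpr and the record does not say whether a fall means rescue or toxicity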
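Fission yeast RE007 carrying one integrated HIV-1 vpr copy, seeded at OD 0.01 in PMG+AL medium with 23 nL pinned compound. Grown 24 h at 30 degrees; viability read by BacTiter-Glo luminescence after 5 min.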
Cruzain inh noDet: blocks cruzain activity in detergent-free assay; Potency, µM, for inactives: max response, negative = inhibition, most hits filed as inhibitors; hit rate 2.3% among 200,000; P25779; purified cruzain, Z-FR-AMC fluorescence, no detergent; active means well fitted curve in the direction sought with a large enough effect; inconclusive means small, poorly fitted or top-dose-only effect, or another doubt; inactive means no such curve, though single readings can be large; an effect the other way counts as inactive or inconclusive;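 further: plate controls were enzyme without inhibitor for no effect and buffer without enzyme for full effect; nearly all actives have a fitted effect of over 40% in size; top concentration of the series not given in the record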
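Detergent-free condition (0.00005% Triton X-100) in acetate buffer pH 5.5 with DTT. 1.5 nM enzyme and compound were pre-mixed 15 min, then 2 uM Z-FR-AMC substrate added; reaction progress from fluorescence change between first and third reads (60 s).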
StopGo reporter: lowers the luciferase signal of an FMDV 2A StopGo reporter; human cells with a luciferase reporter of 2A StopGo recoding; control for the full effect not named in the record; Potency, µM (highest dose often 57.9 µM), for inactives: at the highest dose signal change, negative = less light; hit rate 1.2% among 410,000; AID 1159524; active = well fitted falling curve with a large enough effect; inconclusive = small, poorly fitted or top-dose-only effect; inactive = no such curve, though single readings can be large or run the other way; tested in HEK293T cells; further: on the % scale 0 is the no-effect control and ±100 the full control effect; nearly all actives have a fitted effect of over 45% in size; luciferase light after 4 h
* hit, by the source's call; ? = inconclusive; . = no result given; & = joins results of further samples; [ ] = dose if it differs, or a comment. Unless noted, the call rests on the fitted dose curve; in most records, active means well fitted rising curve with a large enough effect; inconclusive means small, poorly fitted or top-dose-only effect; inactive means no such curve, though single readings can be large or run the other way. Potency means the concentration at half of the fitted maximal effect.

SMILES	Marburg entry inh	Cruzain inh Det	NS1 function inh	SARS PLP yeast	Lassa entry inh	RE007 growth inh	Cruzain inh noDet	StopGo reporter
O=[N+]([O-])c1ccccc1Oc1ccc(Cl)c2cccnc12	?	.	.	0%	?	3%	.	-3%
Cn1c(SCC(=O)NC2CCCC2)nnc1-c1ccco1	3%[46.1 µM]	.	5%	-6%	6%	-2%	.	-16%
C=CCn1c(SCC(=O)N(CCC)C2CCS(=O)(=O)C2)nnc1-c1ccccc1OC (configuration not stated)	6%	.	.	2%	-6%	-15%	.	1%
COc1ccc(N2CCN(C(CNC(=O)C(=O)NCCC3=CCCCC3)c3ccco3)CC2)cc1 (configuration not stated)	-1%	-0.3%	-10%	2%	-26%	21%	0%	-8%
Cc1cc(OCc2nc3ccccc3s2)ccc1N	?	.	7%	-1%	?	-20%	.	16%
COc1ccc(CC(=O)NC(C)C2COc3ccccc3O2)cc1OC (configuration not stated)	1%	.	-1%	0%	-1%	2%	.	-28%
CCOC(=O)N1CCc2c(sc(NCc3cccc(F)c3)c2C(=O)Nc2ccc(OCC)cc2)C1	.	-11%	.	.	0%[46.1 µM]	.	23%	27%
CN(C)c1cccc(Oc2nc3c(c(=O)n(C)c(=O)n3C)n2C)c1	.	.	16%	-12%	.	0%	.	1%
Cn1nnnc1SCCCNCc1cccc(OCc2ccc(Cl)cc2)c1	?	-3.1%	.	.	22%[46.1 µM]	.	14%	-13%
CN(C)C(=O)c1cn(CCC#N)nc1-c1ccc2ccccc2c1	-1%[46.1 µM]	.	27%	1%	-19%[46.1 µM]	-13%	.	0%
O=S(=O)(Nc1ncccn1)c1ccc(NC(=S)NCc2ccco2)cc1	-10%[14.2 µM]	.	.	1%	-6%	4%	.	-10%
COC(=O)c1[nH]c2ccc(C)cc2c1NC(=O)CCN1CCN(Cc2ccc3c(c2)OCO3)CC1	-15%	3.4%	-15%	7%	-22%	-4%	10%	?
O=c1cc(C2CCCCC2)[nH]c(=O)[nH]1	10%	.	.	.	1%	16%	.	0%
Cc1ccc(CNC(=O)CCc2cn(C)c3ccccc23)cc1	?	-0.3%	-7%	-3%	?	-4%	-2%	-23%&2%
COc1cccc(N2CC(C(=O)Nc3ccc(F)cc3)CC2=O)c1 (configuration not stated)	.	.	5%	4%	.	8%	.	0%
COc1ccc(NP(=O)(Oc2ccccc2OC)Oc2ccccc2OC)cc1	?	-7.5%	-16%	-2%	?	-15%	-2%	-20%
Cc1ccc2nc(SCC(=O)Nc3cccc(S(=O)(=O)NC4=NCCCCC4)c3)[nH]c2c1	.	.	-6%	0%	.	12%	.	-6%
Cn1nc(-c2ccccc2F)c2cc(C(=O)Nc3ccc4c(c3)OCCO4)sc21	?	-12%	26%	-7%	?	6%	?	-14%
COc1ccc(S(=O)(=O)N2CCCCCC2)cc1NC(=O)Cc1n[nH]c(=O)c2ccccc12	-3%	.	.	0%	?	0%	.	-20%
COc1ccc(-c2cc(C(=O)O)[nH]n2)cc1OC	27%[46.1 µM]	4.1%	-3%	4%	10%	14%	5%	5%
CCN1CCN(c2cc(C)c3cc(NC(=O)c4cccc(OC)c4)ccc3n2)CC1	.	.	1%	1%	.	15%	.	28%
O=[N+]([O-])c1ccc(OCCCCN2CCCCC2)cc1	38%	-3.5%	-1%	-9%	3%	-6%	4%	0%
CC1(C)C2([N+](=O)[O-])CN3CN(C2)CC1([N+](=O)[O-])C3	?	.	.	1%	-8%[46.1 µM]	3%	.	-9%
CC1=C(C(=O)Nc2ccccc2C(=O)NC2CCC(C)CC2)SCCO1 (configuration not stated)	.	.	7%	-6%	.	1%	.	10%
COc1ccc(S(=O)(=O)N2CCN(CC(=O)Nc3cc(OC)cc(OC)c3)CC2)cc1	1%	3.9%	12%	2%	?	1%	?	-25%
COc1ccc(C(=O)C2CCCN(C(=O)C3=CCCC3)C2)cc1OC (configuration not stated)	.	.	2%	1%	.	-9%	.	11%
COc1ccc(OC)c(NC(=O)CSc2nnc(Cc3cccn3C)n2-c2ccc(F)cc2)c1	3%	-4.2%	-16%	-11%	.	5%	?	-9%
O=C(NCc1cccs1)c1ccc(CS(=O)Cc2ccccc2Cl)o1 (configuration not stated)	.	.	-3%	-7%	.	-8%	.	-19%
COc1ccc(OCC(=O)Nc2cc(S(=O)(=O)N3CCCC3)ccc2OCC(F)(F)F)cc1	?	.	.	-2%	?	6%	.	-13%
Cc1cccc(Nc2nnc(SCC(=O)Nc3cccc(S(=O)(=O)N4CCCCC4)c3)s2)c1	?	-2.8%	?	3%	?	-6%	13µM*	0%
O=C(c1cccc(C(F)(F)F)c1)C1CCCN(Cc2cccn2-c2ccccn2)C1 (configuration not stated)	?	.	-10%	0%	?	-13%	.	?
OC1=C(O)c2nc3cc(C(F)(F)F)ccc3nc21	-3%[46.1 µM]	.	7%	3%	7%[46.1 µM]	-17%	.	-17%
CCCC1=C/C(=C/c2ccc(-c3ccccc3OC)o2)C(=O)O1	18%	-21%	-4%	-42%	4%	.	?	-11%
C=CCNC(=O)c1c(N)n(-c2cccc(S(N)(=O)=O)c2)c2nc3ccccc3nc12	-16%	-16%	-39%	-1%	-23%	19%	?	?
COC(=O)c1c(-c2ccccc2)c[nH]c1C	9%	.	4%	1%	27%	27%	.	57%[activator]
CCOc1cc(C2NC(=O)N(C)C(C)=C2[N+](=O)[O-])ccc1OC(C)=O (configuration not stated)	.	.	-4%	3%	.	0%	.	-14%
COc1cc(C(=O)N2CCN(c3ccc(Nc4ccc(C)cc4)nn3)CC2)cc(OC)c1OC	.	-2.3%	.	.	-25%[46.1 µM]	.	-9%	-11%
O=C(CSCc1ccccc1)NCc1ccc2c(c1)OCO2	19%[46.1 µM]	4.6%	-12%	3%	0%	-7%	13%	40%[activator]
Cc1cc(C)n2nc(C(=O)OCCOc3cccc(Br)c3)nc2n1	29%[46.1 µM]	0.4%	-77%	-2%	18%	-11%	?	15%
CN(C)S(=O)(=O)c1ccc(NC(=O)c2ccc3ncsc3c2)cc1	.	.	-5%	-1%	.	-6%	.	8%
CCCn1c(CCC(=O)O)ccc1-c1ccccc1	-8%[46.1 µM]	.	.	2%	-4%	-6%	.	-5%
CN1C(=S)SC(C)(C)C1N(O)C(=O)Nc1ccc(Cl)cc1 (configuration not stated)	?	.	-5%	-2%	14%	12%	.	1%
CCCCNS(=O)(=O)c1ccc(OC)c(C)c1	.	-1.9%	4%	-27%	-3%	5%	3%	60%[activator]
O=C(Nc1ccc(F)cc1F)c1c(C(F)(F)F)ccnc1Oc1ccccc1	?	.	5%	0%	-16%[46.1 µM]	10%	.	-18%
COc1cccc(/C=N/Nc2ncc(C)c(=O)[nH]2)c1OC	4%	.	0%	-2%	.	-5%	.	19%
Cn1c(CN2CCCC2)nc2cc(NC(=O)c3ccc(Cl)cc3)ccc21	-28%	.	.	-4%	20%	-11%	.	0%
COc1ccc(Nc2nc(C)c(-c3ccccc3)s2)cc1	?	-14%	-18%	10%	-27%	-15%	7%	29%
CN(C)C(=S)NC1CCS(=O)(=O)C1 (configuration not stated)	-16%[46.1 µM]	.	.	-1%	0%	?	.	-4%
O=C(c1cccn(Cc2cccc(Cl)c2)c1=O)N1CCOCC1	-6%	-0.5%	-4%	-3%	6%	-6%	-1%	-5%
Cc1cc(C)cc(N(CCC#N)C(=O)COC(=O)C2CCN(c3ccc(C(F)(F)F)cn3)CC2)c1	?	.	.	1%	8%	-6%	.	-25%
Next compounds
SMILES	Marburg entry inh	Cruzain inh Det	NS1 function inh	SARS PLP yeast	Lassa entry inh	RE007 growth inh	Cruzain inh noDet	StopGo reporter
COc1ccc(-n2nnnc2SCC(=O)Nc2c(C)n[nH]c2C)cc1	-37%	.	.	-2%	-12%	13%	.	-18%
O=c1c2cn(Cc3ccc(F)cc3)c3ccccc3c-2nn1Cc1ccc(F)cc1	0%[46.1 µM]	.	3%	0%	2%	-7%	.	10%
N#Cc1ncc(Cc2ccccc2)nc1C#N	.	.	-74%	?	.	-7%	.	-13%
CCOCCCNC(=O)Cn1ncc2c(=O)oc3ccccc3c21	-33%	-0.6%	-5%	4%	-2%	-16%	1%	-18%
O=C(NCCCc1ccccc1)c1cccs1	?	0.2%	-13%	-3%	22%	-2%	6%	17%
O=C(NCc1cccs1)NC1CCCCC1	?	3.1%	-2%	2%	17%	2%	12%	22%
Cc1cccc(C)c1NC(=O)C1C2C=CC(C2)C1C(=O)NCc1ccccn1 (configuration not stated)	6%	0.9%	-3%	6%	14%	5%	1%	18%
CC(C)CCNC(=O)COC(=O)c1cc(Br)c(Br)s1	24%[46.1 µM]	.	.	-4%	-3%	-19%	.	-12%
COc1ccc(CCNC(=O)CCCn2c(=O)c3ccccc3n(Cc3ccc(C)cc3)c2=O)cc1OC	5%[46.1 µM]	-1.6%	.	.	-12%[46.1 µM]	.	-5%	?
CCCCCNc1nc2c(-c3ccccc3)nnn2c2ccccc12	-9%[46.1 µM]	-0.2%	.	.	8%[46.1 µM]	.	10%	-14%
CCOc1ccccc1NC(=S)N1CCN(c2ccccc2)CC1	.	.	7%	18%	.	34%	.	-8%
O=C(Nc1ccc(F)cc1)c1ccccc1	?	7.6%	-12%	?	?	-11%	2%	0%
Cc1ccc(-c2nnc(N)s2)cc1	24%	-0.6%	-5%	-39%	11%	1%	-1%	34%[activator]
C(=N\c1nc2ccccc2n1CCN1CCCCC1)/c1ccc2c(c1)OCO2	-22%	-17%	-7%	-3%	?	-6%	-19%	4%
O=C1NC(=O)/C(=C\c2ccc(Br)o2)S1	-3%	.	-94%	-11%	.	.	.	24%
CCOC(=O)c1cc2c(=O)n3ccccc3nc2n(CCCOC)c1=NC(=O)c1ccncc1	9%[46.1 µM]	.	6%	-1%	-3%	-6%	.	-10%
COc1cccc(N2CCN(C(=O)Cn3ncc4c5ccccc5n(C)c4c3=O)CC2)c1	2%[46.1 µM]	-3.6%	.	.	3%[46.1 µM]	.	-1%	-15%
COc1ccc(-c2cc(-c3ccc(OC)cc3)[nH]n2)cc1	?	-7.8%	-61%	-10%	-2%	-24%	20%	37%[activator]
CCOC(=O)C1CCN(S(=O)(=O)CCNC(=O)c2ccc3c(c2)OCO3)CC1	11%	.	.	0%	3%	-15%	.	-10%
